Screening results from PubChem BioAssay.
MgrA-DNA mod – S. aureus MgrA-DNA binding modulation | fluorescence polarization | inhibition, %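 (about 10 µg/mL by stock and volumes)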 | 84,000 compounds, 0.13% hits;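 active means above 50% in either of two replicates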;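 further: 0% = protein plus DNA without compound and 100% = DNA alone without protein; higher means less MgrA bound to DNA so lower polarization; one replicate is shown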
S aureus helic – blocks Staphylococcus aureus DNA helicase | purified S. aureus helicase, fluorescence unwinding assay; about half of the hits fall short of the stated cut | inhibition, %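 (tested at about 80 µM)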 | 120,000 compounds, 0.05% hits;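 active means both duplicates at 50% or more, or one of them with a favoured structure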;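 further: 0% = mean of negative control wells and 100% = mean of positive control wells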
* hit, by the source's call; . = not tested or not shown. The list is partial; the hit share may differ from the screen's.

MgrA-DNA mod	S aureus helic	Compound
.	14.0	CN(C(=O)c1ccc2c(c1)N(Cc1ccc(F)cc1)C(=O)c1ccccc1S2=O)C1CCCCC1 (stereo not given)
.	0.0	O=C(OCC1CCCO1)c1c(Cl)cccc1Cl (stereo not given)
-1.4	.	FC(F)(F)c1ccc(N2CCN(Cc3c[nH]c4ccccc34)CC2)nc1
-3.9	-4.0	COC(=O)c1ccc(COC(=O)c2ccc(I)cc2)cc1
0.4	1.0	CCOC(=O)N1CCN(C(=O)c2cnn3c(C(F)(F)F)cc(-c4cccc(OC)c4)nc23)CC1
-0.2	5.0	CCOC(=O)c1c(CN(C)C)oc2ccc(O)cc12
.	-11.0	COc1nc2c(c(-c3ccco3)c1C#N)Cc1ccccc1-2
1.1	9.0	CCOC(=O)c1sc(Nc2nc3ccc(OC)cc3s2)cc1C
1.7	3.0	O=C(NCCc1ccc(Cl)cc1)c1ccco1
-0.6	-8.0	N=c1c2c(-c3ccccc3)c(-c3ccccc3)n(Cc3ccco3)c2ncn1CCO
0.0	1.0	CCN1CCN(C(=O)C2CCCCC2C(=O)O)CC1 (stereo not given)
.	-70.0	CC(C)CNc1cc(N2CCCC2)c2noc3c2c1C(=O)c1ccccc1-3
.	9.0	COC(=O)c1ccc(Oc2coc3cc(OC)ccc3c2=O)cc1
.	6.0	O=C(Cc1ncn[nH]1)NCCc1ccccc1
19.2	19.0	COc1cccc(/C=C2/C(=O)NN(c3ccccc3)C2=O)c1
-1.5	.	OC(CN1CCOCC1)C(F)(F)F (stereo not given)
-2.4	4.0	Cc1ccc(CSCC(=O)Nc2ccc3c(c2)OCO3)cc1
.	6.0	N#CCc1ccc(NS(=O)(=O)c2ccc(N3CCCC3=O)cc2)cc1
41.1	10.0	CCOc1cc(/C=C(/C#N)c2cccc(Br)c2)ccc1OCc1ccc(C(=O)O)o1
-3.5	4.0	C=CCNC(=O)c1sc2cc(Cl)ccc2c1Cl
.	-4.0	CCC1SC(CC)C(=O)N(CC(=O)Nc2cccc(C)c2)C1=O (stereo not given)
.	3.0	CC(C)C(NC(=O)C12CC3CC(CC(C3)C1)C2)C(=O)NC1=NCCS1 (stereo not given)
.	-5.0	CC(N)c1ccco1 (stereo not given)
.	-10.0	CCC(C)NC(=O)CCc1nc2ccccc2n1-c1ccccc1 (stereo not given)
6.0	.	NC(=S)N/N=C/c1ccc(Cl)c(Cl)c1
.	-6.0	Cc1nc2ccccc2n1CC(=O)NC(C)C1CC2CCC1C2 (stereo not given)
-0.3	.	CCOC(=O)C1=C(C)N=c2s/c(=C\c3ccc(OC(C)=O)cc3OC(C)=O)c(=O)n2C1c1cccc([N+](=O)[O-])c1 (stereo not given)
2.0	.	N#Cc1c(-c2ccccc2)c2c([nH]c1=O)-c1ccccc1CC2
10.8	1.0	O=c1nc2s/c(=C\c3cccs3)c(=O)n2nc1Cc1ccccc1
1.5	.	Clc1ccc(Oc2ccnc3cc(Cl)ccc23)cc1
2.8	.	O=c1oc(C(c2ccccc2)C2CCCC2)nc2cccc(F)c12 (stereo not given)
1.9	7.0	COc1ccccc1-n1nnnc1SCC(=O)NC1CCCCC1
-1.4	4.0	CCN1C(=O)C(Cc2c[nH]c3ccccc23)NC1=S (stereo not given)
10.0	-6.0	O=C1CC(N2c3cccc4cccc(c34)S2(=O)=O)C2COC1O2 (stereo not given)
0.5	.	N#Cc1c(F)cccc1C(C#N)c1cccs1 (stereo not given)
1.5	-6.0	NC(=O)COc1ccc(/C=N/NC(=O)c2ccc(CN3CCOCC3)cc2)cc1
0.9	.	COc1cc(/C=N/N(C)C(=S)Nc2cccc(Cl)c2C)cc(OC)c1OC
.	13.0	Nc1nc(CSc2nnc(-c3cccc(Br)c3)o2)nc(Nc2ccccc2)n1
-2.8	.	C=CCc1c(C)[nH]c(=O)c(C#N)c1C
1.9	-3.0	CCOC(=O)C1=C(c2ccccc2)N(C)C(=O)NC1c1ccccc1F (stereo not given)
1.8	-10.0	O=S(=O)(c1ccc(Cl)cc1)n1cnc2ccccc21
.	25.0	CCc1ccc(NC(=O)Cn2nc(C)n3cccc3c2=O)cc1
-1.5	.	Cc1ccc(-c2csc(-c3ccccc3)n2)c(C)c1
.	-5.0	CCS(=O)(=O)NC1CCN(Cc2ccccc2)CC1
.	36.0	CC1Cc2ccccc2N1C(=O)COC(=O)c1ccc(Cl)cc1 (stereo not given)
0.1	.	CN1c2ccccc2C(=O)NC1c1ccc([N+](=O)[O-])s1 (stereo not given)
.	8.0	Fc1ccc(N2COc3cc4c(cc3C2)OCO4)cc1
-0.3	-4.0	O=C(O)c1ccc(C(=O)c2ccc3c(c2)C(=O)N(CC2CCCO2)C3=O)cc1 (stereo not given)
.	9.0	O=C(C1CCCC1)N(c1ccccc1)C1C=CS(=O)(=O)C1 (stereo not given)
.	23.0	Cc1ccc(S(=O)(=O)/N=C2/C=C(Sc3ncn[nH]3)C(=O)c3ccccc32)cc1
-0.3	10.0	CCN1C(=O)c2ccc(C(=O)Nc3cc(C)on3)cc2C1=O
.	6.0	O=C(O)CN1C(=O)SC(CC(=O)Nc2nccs2)C1=O (stereo not given)
4.9	2.0	N#CC(C(=O)CN1CCN(Cc2ccccc2)CC1)c1ccccc1 (stereo not given)
.	-31.0	N#Cc1ccc(CN2CCCc3ccccc32)cc1
1.7	.	O=C(Oc1cc2sc3ccccc3[nH]c2c2c(=O)c3ccccc3c(=O)c12)c1ccccc1
-0.9	.	Cn1c(=O)c2c(nc(NCc3ccccc3)n2Cc2ccc(Cl)cc2Cl)n(C)c1=O

Brought forward from above: 3 compounds; new compounds follow.
MgrA-DNA mod	S aureus helic	Compound
.	-31.0	N#Cc1ccc(CN2CCCc3ccccc32)cc1
1.7	.	O=C(Oc1cc2sc3ccccc3[nH]c2c2c(=O)c3ccccc3c(=O)c12)c1ccccc1
-0.9	.	Cn1c(=O)c2c(nc(NCc3ccccc3)n2Cc2ccc(Cl)cc2Cl)n(C)c1=O
.	30.0	CCOC(=O)c1nc2ccccc2n(C(C)=O)c1=O
-0.8	.	COc1ccc(-c2cc3nnc(-c4ccccc4)nc3s2)cc1
-2.5	7.0	COc1cccc(-c2nc(CS(=O)CC(=O)O)c(C)o2)c1 (stereo not given)
.	7.0	CCOC(=O)c1nnc2ccnn2c1N
.	8.0	CN(C(=O)CSc1nnc(-c2ccccc2)n1-c1ccccc1)C1CCS(=O)(=O)C1 (stereo not given)
1.6	6.0	COc1ccc(CN=C(N)N)cc1
0.5	4.0	COc1ccc(/C=C2\SC(N(C)c3ccc(Cl)cc3)=NC2=O)c(OC)c1OC
1.2	.	O=C(Nc1cccc2[nH]ccc12)C1CCCCC1
.	4.0	O=c1cc(-c2cccs2)oc2ccc(O)cc12
-4.7	17.0	COc1ccccc1Nc1nc2c(s1)CCCC2
-0.1	6.0	NC(N)=NS(=O)(=O)c1ccc(NC(=S)NC(=O)/C=C/c2ccc(F)cc2)cc1
1.7	3.0	COc1ccc(OC)c(/C=N/N=C2\SCC(=O)N2Cc2ccco2)c1
.	-3.0	CC1COC2=C(N3CCN(C)CC3)C(F)=CC3C(=O)C(C(=O)O)=CN1C23 (stereo not given)
.	-21.0	O=C(O)C(=Cc1nc(-c2ccccc2)n2ccccc12)C(=O)O
-2.9	-1.0	OCN(Cc1ccccc1)Cc1ccccc1
0.0	.	O=C(Nc1nnc(COc2ccc(Br)cc2)s1)C12CC3CC(CC(C3)C1)C2
.	0.0	O=C(Cc1ccccc1)NCCn1ccc2ccccc21
.	10.0	Nc1ccccc1-c1nnc(-c2ccccc2)c(=O)[nH]1
.	-12.0	C(=N\N1CCCCC1)/c1cn(-c2ccccc2)nc1-c1cccs1
11.1	-6.0	C/C(=C/C(=O)c1c(O)c2ccccc2n(C)c1=O)Nc1ccc(N)cc1
-0.2	.	Cn1ccnc1SCC(=O)c1ccccc1
0.8	.	Cc1cc(C)c2cc(C(=O)N(C)c3ccc(F)cc3F)[nH]c2c1
4.5	-7.0	COc1ccc(S(=O)(=O)N2CCCC(C(=O)N3CCN(C)CC3)C2)cc1OC (stereo not given)
0.1	.	O=C1/C(=C/c2ccc(Cl)cc2)CCc2ccccc21
.	-18.0	CC(=O)O/N=C/c1[nH]ncc1Br
-1.2	-6.0	CCOc1ccc(N=c2ccc3ccccc3n2C)cc1
.	1.0	O=C(O)c1cccc(S(=O)(=O)Nc2ccc(N3CCCCC3)cc2)c1
0.1	7.0	Cc1cc(C)nc(-n2nc(C)c(C3=CCC(C(C)(C)C)CC3)c2N)n1 (stereo not given)
-0.2	.	O=c1[nH]c2ccccc2nc1-c1cc(F)ccc1NCc1ccccn1
-0.4	.	Cc1nn(Cc2nn[nH]n2)c(C)c1Br
.	2.0	Cc1cccc(OCc2cc(=O)n3nc(-c4ccco4)sc3n2)c1C
.	3.0	O=c1cc(O)c2sc(Nc3ccc(F)cc3)nc2[nH]1
1.5	3.0	Cc1cc(NC(=O)C2CCC2)ccc1Br
.	18.0	COCc1nc2ccccc2n1C(C)c1ccccc1 (stereo not given)
.	-1.0	CCOc1ccc(C(=O)Nc2nc3cc4c(cc3s2)OCO4)cc1
.	12.0	O=C(/C=C/C(=O)N1CCOCC1)Nc1nccs1
1.1	14.0	N#CCN(CC#N)C(=O)C(Sc1ccccc1)c1ccccc1 (stereo not given)
.	-9.0	O=C(O)CSCC(=O)Nc1ccc(Cl)cc1
3.2	6.0	NNc1ccc2nncn2n1
.	-21.0	COc1ccc(C(=O)NCC(=O)O)cc1
.	6.0	O=C(c1cccc2cccc(O)c12)N1CCCCC1
.	-7.0	CN(Cc1ccccc1F)c1ccc(S(=O)(=O)N2CCCC2)cn1
2.1	7.0	Cc1cc(C)cc(NC(=O)CS(=O)(=O)c2cccc3nsnc23)c1
-5.9	12.0	COC1=CC(=O)OC12CCCCC2
.	-18.0	Cc1ccc(C(=O)Nc2c(C(N)=O)oc3ccccc23)cc1C
.	20.0	O=C(O)Cc1cc(=O)[nH]c(=O)[nH]1
-1.9	0.0	Cc1ccc(Cl)cc1NC(=O)COC(=O)C1CCCC1
-0.3	.	CN(C)c1ccc(C2C3=C(CC(C)(C)CC3=O)Nc3ccccc3N2C(=O)c2ccccc2)cc1 (stereo not given)
0.2	-4.0	CC(=O)N1CCc2cc(Br)cc(S(=O)(=O)N(C)Cc3ccccc3)c21
.	6.0	C=CCN1C(=O)c2ccc(C(=O)OCC(=O)c3cc4ccccc4o3)cc2C1=O
-1.8	1.0	CCOC(=O)CCCc1ccc(/C=C/C(=O)O)s1
-2.8	.	CC1=C(C#N)C(c2ccc(O)cc2Cl)C(C#N)=C(C)N1
.	7.0	CC(C)N(CC(N)=O)Cc1cccc2ccccc12
.	-18.0	CN(C)C(=O)COc1cccc2ccccc12
0.8	-15.0	CC1CCC(C(=O)NC(C(=O)Nc2ccc(F)c(Cl)c2)C(C)C)CC1 (stereo not given)
.	11.0	CC(C)c1ccc2oc3nc(N)c(C#N)cc3c(=O)c2c1

The list goes on.
MgrA-DNA mod	S aureus helic	Compound
.	11.0	N#Cc1cccn1Cc1ccc(F)cc1Cl
0.4	3.0	CN(C(=O)c1cc(-c2cccs2)nc2ccccc12)c1ccccc1
3.0	.	CN1CCC(=C2c3ccccc3C=Cc3ccccc32)CC1
.	18.0	CCCS(=O)(=O)N1CCCC1C(=O)O (stereo not given)
1.1	-1.0	O=C(/C=C/c1ccco1)NC(c1ccccc1)c1ccccc1
.	11.0	NC(=O)c1cc(-c2csc(=NC3CC3)n2/N=C/c2ccccn2)ccc1O
.	-10.0	Cc1cc(C(=O)Nc2nccs2)c(C)s1
.	-191.0	N#Cc1cc(C(=O)c2cc(Cl)ccc2O)c[nH]c1=O
-3.2	.	Cc1cc(C(=O)N2CCC(C(=O)O)CC2)c(C)o1
8.6	.	Cc1ncc(CSc2ccccc2N=Cc2cc(Cl)cc(Cl)c2O)c(CO)c1O
1.5	-9.0	C=Cc1cccc(NC(=O)c2cccs2)c1
.	16.0	COc1ccc(CC(=O)O)c(C(=O)O)c1
-0.2	.	CC(C(=O)NC(C)(C)C)n1c(C(F)(F)F)nc2ccccc21 (stereo not given)

In the list so far, 15 contain a COOH group.
MgrA-DNA mod	S aureus helic	Compound
0.0	1.0	CCN1CCN(C(=O)C2CCCCC2C(=O)O)CC1 (stereo not given)
41.1	10.0	CCOc1cc(/C=C(/C#N)c2cccc(Br)c2)ccc1OCc1ccc(C(=O)O)o1
-0.3	-4.0	O=C(O)c1ccc(C(=O)c2ccc3c(c2)C(=O)N(CC2CCCO2)C3=O)cc1 (stereo not given)
.	6.0	O=C(O)CN1C(=O)SC(CC(=O)Nc2nccs2)C1=O (stereo not given)
-2.5	7.0	COc1cccc(-c2nc(CS(=O)CC(=O)O)c(C)o2)c1 (stereo not given)
.	-3.0	CC1COC2=C(N3CCN(C)CC3)C(F)=CC3C(=O)C(C(=O)O)=CN1C23 (stereo not given)
.	-21.0	O=C(O)C(=Cc1nc(-c2ccccc2)n2ccccc12)C(=O)O
.	1.0	O=C(O)c1cccc(S(=O)(=O)Nc2ccc(N3CCCCC3)cc2)c1
.	-9.0	O=C(O)CSCC(=O)Nc1ccc(Cl)cc1
.	-21.0	COc1ccc(C(=O)NCC(=O)O)cc1
.	20.0	O=C(O)Cc1cc(=O)[nH]c(=O)[nH]1
-1.8	1.0	CCOC(=O)CCCc1ccc(/C=C/C(=O)O)s1
.	18.0	CCCS(=O)(=O)N1CCCC1C(=O)O (stereo not given)
-3.2	.	Cc1cc(C(=O)N2CCC(C(=O)O)CC2)c(C)o1
.	16.0	COc1ccc(CC(=O)O)c(C(=O)O)c1
